Compound activity: PubChem, National Center for Advancing Translational Sciences (NCATS)
gsp antag: antagonizes gsp, the McCune-Albright syndrome mutation. gsp-mutant cells, cAMP HTRF, 30 min; control for the full effect not named in the record. Potency, µM (top dose mostly 76.9 µM), for inactives: at the top dose activity change, negative = inhibition, usual class: inhibitors. 340,000 compounds, 0.4% hits. AID 624288; active = falling curve of any shape with a large fitted effect; inconclusive = falling curve, mostly with a smaller effect; inactive = flat or rising curve; cell line not stated here;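 also: intracellular cAMP measured with PDE inhibitor Ro 20-1724 present during compound exposure; potency is read from the fitted curve at half-maximal effect; % is scaled to controls: 0 for no effect and ±100 for the full control effect; nearly all actives have a fitted effect of over 65% in size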
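G418-selected cells were plated in DMEM/10% FBS for 16-24 h at 37C, then treated with compounds plus the PDE inhibitor […] (300 uM solution added) for 30 min at 37C. Intracellular cAMP was measured by HTRF after 30 min lysis at room temperature.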
ClpP mod: qHTS Assay for Activators of ClpP | ATP-dependent Clp protease proteolytic subunit (Bacillus subtilis (strain 168)), P80244 | purified B. subtilis ClpP, FRET peptide cleavage, 20 min | Potency, µM (top dose mostly 57.5 µM), for inactives: at the highest dose activity change, negative = active | 340,000 compounds, 1.9% hits; active = well fitted falling curve with a large enough effect; inconclusive = small, poorly fitted or top-dose-only effect; inactive = no such curve, though single readings can be large or run the other way; also: potency is read from the fitted curve at half-maximal effect; the source files actives as falling curves though it sought activators and does not explain the sign; nearly all actives have a fitted effect of over 65% in size; many hits overshoot -100%
Target sequence (P80244 whole entry, looked up): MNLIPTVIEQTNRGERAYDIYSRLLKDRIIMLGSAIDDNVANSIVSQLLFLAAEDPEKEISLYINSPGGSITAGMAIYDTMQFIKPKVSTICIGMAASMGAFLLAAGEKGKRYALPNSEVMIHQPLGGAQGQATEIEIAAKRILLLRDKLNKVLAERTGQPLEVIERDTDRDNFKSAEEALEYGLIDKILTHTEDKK
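Buffer: 100 mM Tris/HCl pH8, 100 mM KCl, 0.05% low protease BSA, 2.5% glycerol, 0.01% Tween-20. ClpP 10 microg/mL final; 20 min RT; delta FRET normalized to ADEP and DMSO controls.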
gsp agonist: activates gsp, the McCune-Albright syndrome mutation; Potency, µM (doses to about 76.9 µM), for inactives: at the highest dose activation (cAMP increase), hits mostly activators; gsp mutant cells, cAMP HTRF, 30 min; control for the full effect not named in the record; AID 624287; 340,000 compounds, 0.13% hits; active = well fitted activation curve with a large enough effect; inconclusive = small, poorly fitted or top-dose-only effect, or another doubt; inactive = no such curve, though single readings can be large or run the other way; cell line not stated here;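 also: phosphodiesterase inhibitor Ro 20-1724 added with compounds to block cAMP breakdown; potency is read from the fitted curve at half-maximal effect; nearly all actives have a fitted effect of over 60% in size; about a fifth of the inactives were tested at one dose only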
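Cells stably selected in G418 were plated at 2000/well, grown 16-24 hr, then given compounds in DMSO with the PDE inhibitor […] (300 uM solution added) for 30 min at 37C; cAMP was read by HTRF.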
D2 PAM: positive allosteric modulators of human D2 dopamine receptor. P14416. potentiation, % (concentration not given with the values). AID 624464. DiscoveRx D2 beta-arrestin cells, luminescence, 90 min; 100% = 57 uM dopamine signal. 360,000 compounds, 0.23% hits; active = potentiation of 50% or more; inconclusive = 30% to 50%; inactive = 30% or less;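 also: tested on top of an EC20 dose of dopamine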
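PathHunter beta-arrestin assay in DiscoveRx D2 cells. Compounds were added with an EC20 of dopamine (50 nM final) for 90 min at 37 deg C. Luminescence was read 1 h after detection reagent, with 57 uM dopamine as the EC100 control.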
TRPV1 PAM: human TRPV1 potentiation | Q8NER1 | TRPV1-expressing cells, Fluo-8 calcium influx, capsaicin EC20 potentiation; host cell line not named in the record; control for the full effect not named in the record | potentiation, % at 8.33 µM | 320,000 compounds, 0.02% hits; active means potentiation above 80%; inconclusive means 30% to 80%; inactive means below 30%; also: 0% is about no effect
Target sequence (Q8NER1 whole entry, looked up): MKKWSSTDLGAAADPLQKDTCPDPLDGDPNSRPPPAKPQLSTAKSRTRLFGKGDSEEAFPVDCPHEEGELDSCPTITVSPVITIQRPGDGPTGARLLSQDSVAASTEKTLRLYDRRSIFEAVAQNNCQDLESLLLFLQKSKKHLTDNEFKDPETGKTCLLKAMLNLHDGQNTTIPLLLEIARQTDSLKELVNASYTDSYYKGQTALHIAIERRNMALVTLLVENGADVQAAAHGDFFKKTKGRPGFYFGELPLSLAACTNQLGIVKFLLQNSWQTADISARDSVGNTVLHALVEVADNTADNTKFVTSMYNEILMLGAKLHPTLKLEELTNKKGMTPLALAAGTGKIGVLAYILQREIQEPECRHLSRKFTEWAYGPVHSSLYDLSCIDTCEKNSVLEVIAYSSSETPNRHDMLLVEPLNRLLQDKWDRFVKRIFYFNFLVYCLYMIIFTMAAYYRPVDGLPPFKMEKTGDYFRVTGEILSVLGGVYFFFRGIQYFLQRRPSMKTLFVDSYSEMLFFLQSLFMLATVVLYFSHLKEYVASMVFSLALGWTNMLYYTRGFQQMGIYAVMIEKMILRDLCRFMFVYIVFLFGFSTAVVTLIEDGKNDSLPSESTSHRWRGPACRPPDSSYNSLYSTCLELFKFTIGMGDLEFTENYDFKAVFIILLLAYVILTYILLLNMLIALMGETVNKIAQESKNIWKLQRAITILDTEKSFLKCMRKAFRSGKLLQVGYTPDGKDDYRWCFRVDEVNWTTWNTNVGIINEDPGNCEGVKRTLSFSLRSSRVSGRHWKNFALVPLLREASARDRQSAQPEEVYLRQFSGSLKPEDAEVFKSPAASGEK
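TRPV1-expressing cells were cultured overnight at 35.5C and loaded with Fluo-8 calcium dye for 40 to 90 min at room temperature. After a 10 s baseline, compound was added and calcium influx was read kinetically for 3 min (ex 480/em 520 nm).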
Sfp PPTase inh: Sfp phosphopantetheinyl transferase inhibition | Biochemical Sfp PPTase activity, qHTS | Potency, µM, without a hit: max response, negative = inhibition, hits mostly inhibitors | 310,000 compounds, 3.5% hits | AID 1490; active = well fitted inhibition curve with a large enough effect; inconclusive = small, poorly fitted or top-dose-only effect, or another doubt; inactive = no such curve, though single readings can be large or run the other way;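 also: the enzyme is Sfp with the accession as filed and its product quenches rhodamine fluorescence; potency is read from the fitted curve at half-maximal effect; 0% = enzyme reaction without inhibitor and -100% = no enzyme wells; top concentration of the series not given in the record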
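Buffer: 50 mM Hepes-Na pH 7.6, 10 mM MgCl2, 0.01% Nonidet P-40, 0.01% BSA. Enzyme 15 nM, pre-exposed to compound 15 min; substrates then added and fluorescence change tracked over 30 min.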
Menin MLL FP FL: inhibitors of human menin-MLL interaction, wild-type MLL peptide | Fluorescence polarization, fluorescein-MLL peptide displacement from menin | FP activity change, % at 61.4 µM | 290,000 tested, under 10 active | AID 1766; inconclusive = falling polarisation curve, or a change in total fluorescence; inactive = total fluorescence flat and polarisation flat or rising; no compound was filed as active; the % refers to the polarisation; negative = inhibition;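 also: % of control where 0% means no effect; inhibitors lower the polarisation; unlabelled MLL peptide was the positive control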
Active calls of the source: *; u = inconclusive; x = not tested or not shown; & = joins results of further samples; [ ] = another dose, or the depositor's remark.

SMILES	gsp antag	ClpP mod	gsp agonist	D2 PAM	TRPV1 PAM	Sfp PPTase inh	Menin MLL FP FL
CCOc1cccc2cc(C(=O)NCc3ccccc3Cl)c(=O)oc12	25%	7.3%	-27%	0	-15	0%	-0.1
NS(=O)(=O)c1ccc(N=Nc2c[nH]c(=O)c(O)c2)cc1	u	x	-30%[inhibitor]	-17	-18	45µM*	u
O=C(O)c1ccc(NN=CC2=C(N3CCOCC3)/C(=C/c3ccccc3)CC2)cc1	10µM*	-14%	8%	77*	x	x	x
NC(=O)N/N=C/c1ccccc1OC(=O)c1ccccc1Br	1%	x	-8%	3	5	1%	-1.5
CCCc1nc(SCC(=O)NC2CCCC2)c2ccccc2n1	5%	x	u	-4	-6	21%	2.0
Cc1ccc(NC(=O)C2C3C=CC(O3)C2C(=O)O)c(C)c1 (stereo not given)	4%	x	4%	-3	1	-9%	-6.1
Cc1ccc(S(=O)(=O)NCc2ccccc2)cc1C(=O)N1CCN(c2ccccc2)CC1	-6%	-0.9%	-26%	1	6	x	x
Cc1ccc(C(=O)NCCC2=CCCCC2)cc1S(=O)(=O)N1CCOCC1	2%	0.7%	-2%[15.4 µM]	-11	u	x	x
Cc1cc(S(=O)(=O)N2CCCCC2)ccc1OCC(=O)Nc1ccccc1	-21%	-11%	u	5	-6	9%	-2.1
C=CCNc1ccc(N2C(=O)CCCC2=O)cc1[N+](=O)[O-]	16%	-0.6%	u	-2	-5	12%	4.0
O=S(=O)(c1ccc(F)cc1)c1nc(-c2ccco2)oc1NCCCn1ccnc1	x	-0.2%	u	-6	x	x	x
COc1ccc(-c2nnc(-c3ccc(F)cc3)o2)cc1	4%	-0.6%	-6%[15.4 µM]	0	-15	9%	-7.1
Cc1cc(O)ccc1Nc1nc(-c2cccs2)cs1	-24%	x	18%	3	7	-18%	2.0
Nc1ccc(N2CCCCCC2)cc1	x	x	x	x	1	8.9µM*	3.4
COc1cc(C)c(NC(=O)C(=S)NCc2ccccc2)cc1C	-11%	-2.1%	2%[15.4 µM]	-5	25	u	0.1
CCOC(=O)c1ccccc1NC(=O)CSc1nc2ccccc2o1	-12%	-11%	-14%	-9	-12	-1%	3.2
Cc1cnc(CN(C)C(=O)CC2C(=O)NCCN2CCCc2ccccc2)[nH]1 (stereo not given)	3%	-2.6%	-5%[15.4 µM]	-19	-1	-3%	x
COCCCN(C(=S)Nc1cc(C)cc(C)c1)C(C)c1ccncc1 (stereo not given)	-5%	-1.7%	-21%	-11	4	1%	2.1
COc1cc(OC)nc(NC(=O)CSc2nc3ccccc3[nH]2)n1	14%	-0.3%	u	1	1	-4%	3.1
COc1ccc(C(O)(CCC(C)C)C(CN2CCOCC2)c2ccccc2)cc1 (stereo not given)	-25%	1.1%	-35%[inhibitor]	-17	-9	3%	3.0
COc1ccc(CC(=O)N/N=C/c2sccc2C)cc1	0%	-0.3%	-4%[15.4 µM]	-12	3	3%	8.2
O=C(N/N=C/c1cccc(O)c1)C(=O)N1CCCCCC1	8%	x	3%	3	1	19%	0.0
COc1ccc(OC)c(CNC(=O)CCCn2ccc3cc(S(=O)(=O)N4CCCC4)ccc32)c1	-13%	-4.1%&-2.4%	28%	-8	u	6%	-0.6
Cc1oc(-c2ccccc2)nc1CS(=O)CC(=O)O (stereo not given)	9%	-4.1%	-3%	-7	9	-10%	-1.3
COC(=O)Cn1c(C)nc([N+](=O)[O-])c1Br	-4%	0.8%	-7%[15.4 µM]	-4	-19	10%	1.5
CCOC(=O)c1cc(C)nc(SC)c1C#N	-21%	x	-12%	1	-3	79µM*	-4.1
CCOC(=O)c1ccccc1NC(=O)Cn1cnc2c(cnn2-c2ccc(F)cc2)c1=O	13%	-4.3%	0%	5	18	15%	-0.6
Fc1ccc(Cn2nnc(-c3ccc(Cl)cc3)n2)cc1	12%	1.1%	-35%[inhibitor]	-3	-4	14%	-1.8
O=C(c1ccco1)c1cn(CC(=O)N2CCCCCC2)c2ccccc12	-4%	-3.4%	10%[15.4 µM]	-6	-15	-2%	3.1
O=C(O)C1CC(O)CN1S(=O)(=O)c1cccs1 (stereo not given)	-12%	3.7%	-7%[15.4 µM]	5	6	8%	0.4
Cc1[nH]c(C)c2c(=O)n(Cc3ccc(Cl)cc3)ncc12	9%	-12%	-23%	4	3	8%	-3.3
CC(C)[C@H](NC(N)=O)C(=O)NCCc1ccc(Cl)cc1Cl	-15%	u	-45%[inhibitor]	12	7	1%	1.0
COc1ccccc1NC(=O)CN1CCN(CC(=O)Nc2ccc3c(c2)OCCO3)CC1	0%	-1.1%	-35%[inhibitor]	1	1	5%	3.3
CC1(C)Cc2nc3sc4c(=O)n(CC(=O)NCc5ccco5)cnc4c3cc2CO1	14%	-29%	-11%	-6	19	-1%	3.9
CCN(c1cccc(C)c1)S(=O)(=O)c1ccc2[nH]c(=O)c(=O)[nH]c2c1	-10%	22µM*	12%	0	4	12%	4.7
Cc1c(S(=O)(=O)N(C)C2CCCCC2)c(=O)n(C)c(=O)n1C	3%	13µM*	-25%	15	13	x	x
COc1cc2c(cc1OC)C(c1ccccc1)N(C(=O)c1ccccc1F)CC2 (stereo not given)	-9%	1.8%	-4%	-6	-8	-5%	-2.3
O=C(NC1CCc2ccccc21)c1cc(COc2cncc(Cl)c2)on1 (stereo not given)	-23%	-0.1%	u	-8	-12	11%	x
N#Cc1ccc(COC(=O)CSc2nnc(N)s2)cc1	-5%	u	-8%	-7	0	9%	4.9
Cc1nn(CCCC(=O)Nc2c(F)cc(F)cc2Br)c(C)c1[N+](=O)[O-]	8%	0.2%	-17%	-8	-3	-1%	-1.9
Cc1ccc(S(=O)(=O)NC2=NCCC2)cc1	12%	-4.2%	-27%	1	-1	5%	1.4
CCc1c(C#N)c(SCc2c(C)noc2C)nc2c1C(=O)CC(C)(C)C2	u	-0.9%	-62%[inhibitor]	-31	3	-25%	3.8
COc1ccc(CC(=O)NCCS(=O)(=O)N2CCN(c3ccc(F)cc3)CC2)cc1OC	-7%	-2.3%&0.9%	-1%	-2	-8	11%	-3.4
COc1ccc(C(=O)NCCS(=O)(=O)N2CCCCCC2)cc1	10%	-2.8%	10%	-12	0	x	x
CCSc1ccc(-c2ccco2)nn1	6%	-2.6%	9%[15.4 µM]	-5	3	14µM*	9.1
Cc1oc(-c2ccccc2)nc1C(=O)OCC(=O)NCc1ccc(F)cc1	x	-1.1%	2%	-6	x	x	x
CN(C)CCNc1nc(S(=O)(=O)c2ccccc2)c(Cl)s1	10%	x	3%[15.4 µM]	-16	-6	18%	-2.7
Fc1ccccc1/C=N/NC(=S)Nc1ccc(Cl)cc1Cl	11%	2.3%	-6%	-37	-13	-1%	4.0
COc1cc(N)ccc1NC(=O)c1cc2ccccc2o1	-4%	-0.1%	u	-19	2	2%	1.3
Cc1cc(N2CCOCC2)nc2ccc(NC(=S)N3CCN(c4ccccc4)CC3)cc12	3%	-15%	14%	-6	-10	-2%	-6.9
Cc1ccc(N2C(=O)Cc3ccccc3C2=O)cc1	1%	x	-4%[15.4 µM]	-5	10	7%	11
Cc1ccc(-c2nnn(CC(=O)N(CC(=O)NC3CCCCC3)c3cnc4ccccc4c3)n2)o1	-5%	0.7%	-56%[inhibitor]	4	x	x	x
CCn1nc(C)cc1C(=O)N1CCCC(Nc2ccc(F)c(F)c2)C1 (stereo not given)	8%	0.8%	-1%	0	-10	6%	x
COc1ccc(C)cc1N(C(=O)c1snc(C(N)=O)c1N)C(C(=O)NC1CCCCC1)c1ccc(C)o1 (stereo not given)	-17%	x	7%	-8	-5	-2%	-1.5
CCOC(=O)C1CCN(C(=O)CCc2c(C)nc3ncnn3c2C)CC1	18%	1.1%	u	-11	-12	12%	-1.6
CCOC(=O)N1CCN(S(=O)(=O)c2cccc3cccnc23)CC1	-4%	-0.5%	8%	24	10	0%	4.5
Cn1c(SCC(=O)c2ccccc2)nnc1-c1ccncc1	11%	1.1%	-10%[15.4 µM]	-8	27	24%	0.6
O=C(COc1ccccc1[N+](=O)[O-])N/N=C/c1ccc[nH]1	7%	32µM*	1%[15.4 µM]	2	-10	u	0.8
CC1CCCCC12NC(=O)N(CC(=O)NCc1ccc3c(c1)OCO3)C2=O (stereo not given)	15%	x	3%[15.4 µM]	-9	-3	20%	1.1
CC(C)Sc1nc2c(c(=O)n(C)c(=O)n2C)n1C	3%	0.9%	4%	1	-6	1%	3.3

One compound at a time, from the list above. Order of screens: gsp antag	ClpP mod	gsp agonist	D2 PAM	TRPV1 PAM	Sfp PPTase inh	Menin MLL FP FL
CC(C)Sc1nc2c(c(=O)n(C)c(=O)n2C)n1C is entered as 3%	0.9%	4%	1	-6	1%	3.3
CC1CCCCC12NC(=O)N(CC(=O)NCc1ccc3c(c1)OCO3)C2=O (stereo not given) is entered as 15%	x	3%[15.4 µM]	-9	-3	20%	1.1

Further structures follow:
SMILES	gsp antag	ClpP mod	gsp agonist	D2 PAM	TRPV1 PAM	Sfp PPTase inh	Menin MLL FP FL
CCOc1ccc(Nc2nc(N3CCCC3)nc(N3CCN(c4ccc(OC)cc4)CC3)n2)cc1	3%	x	1%[15.4 µM]	-5	4	12%	-1.3
CC(C)C(c1nnnn1Cc1ccco1)N1CCN(c2nc3ccccc3s2)CC1 (stereo not given)	-25%	-5.0%	-37%[inhibitor]	14	13	5%	0.8
COc1cc(OC)cc(C(=O)NCC(=O)OCC(=O)Nc2ncc(Cl)cc2Cl)c1	-80%	x	15%[15.4 µM]	1	3	7%	-1.3
CCc1nc2sc3c(Cl)ncnc3c2c2c1CCCC2	4%	-2.4%	-52%[inhibitor]	-2	-10	5%	1.6
CC(C)NC(=O)NC(=O)CSc1ncccn1	7%	-0.1%	-23%	-6	-5	15%	0.9
CC(C)N1C(=O)CCC1C(=O)NCc1ccc(F)cc1Cl (stereo not given)	7%	-0.8%	-6%	-11	u	10%	-5.9
Cc1ccc2c(c1)c1ncn(CCC3=CCCCC3)c(=O)c1n2C	-5%	-29%	u	13	-3	-18%	5.4
COc1ccc(/C=C(/NC(=O)/C=C/c2ccccc2)C(=O)N2CCOCC2)cc1	1%	-0.7%	-11%[15.4 µM]	-12	8	14%	5.4
CN1CCn2c1nc(N1CCOCC1)nc2=O	5%	0.4%	0%	10	7	4%	-1.7
